Screening results as filed in PubChem BioAssay.
Vaccinia Venus – inhibitors of vaccinia virus (Venus reporter); Vaccinia virus Venus reporter expression, fluorescence; Potency, µM (top dose mostly 36.5 µM), for inactives: at the highest dose activity change, negative = inhibition, most hits filed as inhibitors; 330,000 tested, 0.46% active; AID 720580; active means well fitted inhibition curve with a large enough effect; inconclusive means small, poorly fitted or top-dose-only effect; inactive means no such curve, though single readings can be large or run the other way; tested in A549 cells; further: nearly all actives have a fitted effect of over 30% in size; inactives centre near -10
Vaccinia mCherry – vaccinia inhibition (mCherry reporter); Vaccinia virus mCherry reporter infection, fluorescence; about a quarter of the inactives have no number; Potency, µM (series often up to 36.5 µM), inactives show at the top dose activity change, negative = inhibition, most hits filed as inhibitors; 310,000 tested, 0.63% active; AID 720579; active = well fitted inhibition curve with a large enough effect; inconclusive = small, poorly fitted or top-dose-only effect; inactive = no such curve, though single readings can be large or run the other way; tested in A549 cells; further: nearly all actives have a fitted effect of over 35% in size; inactives centre near -10
An asterisk follows results filed as active; i = inactive; ? = inconclusive; . = not tested or not shown; [ ] = remark or other dose. On the % scale 0 is the no-effect control and ±100 the full control effect; potency means the concentration at half of the fitted maximal effect. Outcome played no part in choosing rows; 0.86% or so of the library scored in one or more.

entry	SMILES	Vaccinia Venus	Vaccinia mCherry
1	CC(=O)Nc1ccc(C(=O)N2CCCCC2c2cc(C(=O)NCc3ccccc3)no2)cc1 (stereo not given)	10%	7%
2	O=C(CSC1=NCCS1)Nc1nc(-c2ccccc2)cs1	-17%	-25%
3	O=C(NCc1ccccc1Cl)C(=O)NCC1OCCN1S(=O)(=O)c1ccc(F)cc1 (stereo not given)	-17%	i
4	Cc1cccc(OCC(=O)OC(C)C(=O)Nc2ccc(Cl)cn2)c1 (stereo not given)	-2%	-6%
5	CC(C#CCN1CCCCC1)OCCOCc1ccccc1 (stereo not given)	-12%	-3%[1.46 µM]
6	CCOc1ccc(NC(=O)CSc2nnc(Cc3cccn3C)n2-c2ccc(F)cc2)cc1	-9%	-21%
7	O=c1[nH]c(SCCOc2ccccc2)nc2ccccc12	-16%	-5%
8	NCCCn1c(C(=O)c2cc(Cl)c(N)c(Cl)c2)c2ccccc2[n+]1[O-]	-8%	?
9	COc1cc(-c2cc3nc(NCc4cccs4)ccn3n2)cc(OC)c1OC	-16%	-24%
10	S=C(NCCCc1ccccc1)Nc1ccc(Br)cc1	-12%	-17%
11	CC(C)c1ccc2[nH]c3nc(SCC(=O)NC4CC4)nnc3c2c1	-1%	6%
12	CCOc1ccccc1CNC(=O)c1ccc(N2Cc3ccccc3Oc3ncccc32)s1	-10%	-16%
13	Cn1c(=O)c2c(nc(CN3CCOCC3)n2Cc2ccccc2)n(C)c1=O	-8%	-14%
14	CCOc1ccc(NC(=O)Cn2c(=O)n(-c3cccc(OC)c3)c(=O)c3c4c(sc32)CCCC4)cc1	-6%	-7%
15	Cc1ccccc1C(=O)N1CCN(c2ccc(N3CCOCC3)nn2)CC1	-4%	-13%

Rewritten field by field: entries from further up.
#4 Cc1cccc(OCC(=O)OC(C)C(=O)Nc2ccc(Cl)cn2)c1 (stereo not given)
  Vaccinia Venus = -2%
  Vaccinia mCherry = -6%
#5 CC(C#CCN1CCCCC1)OCCOCc1ccccc1 (stereo not given)
  Vaccinia Venus = -12%
  Vaccinia mCherry = -3%[1.46 µM]
#6 CCOc1ccc(NC(=O)CSc2nnc(Cc3cccn3C)n2-c2ccc(F)cc2)cc1
  Vaccinia Venus = -9%
  Vaccinia mCherry = -21%
#7 O=c1[nH]c(SCCOc2ccccc2)nc2ccccc12
  Vaccinia Venus = -16%
  Vaccinia mCherry = -5%

Continuation.
entry	SMILES	Vaccinia Venus	Vaccinia mCherry
16	Cc1nc(N)sc1N=Nc1c(C)n(C)n(-c2ccccc2)c1=O	8%	-12%
17	CCOC(=O)c1c(-c2ccccc2)oc2ccc(OCC(O)CN(C)C)cc12 (stereo not given)	?	?
18	COc1ccc(Cl)cc1NC(=S)NCCO	?	-28%
19	COc1ccccc1C(CNC(=O)c1cccc(S(=O)(=O)N2CCCc3ccccc32)c1)N(C)C (stereo not given)	-25%	-9%
20	CCCCOc1ccc(C(=O)NCC(=O)NCC(c2ccc(F)cc2)N2CCOCC2)cc1 (stereo not given)	-24%	-28%
21	OCC1(Cc2ccc(Cl)cc2)CCN(Cc2ccc3nsnc3c2)CC1	-6%	-11%
22	O=C(CSc1nnc(-c2cccs2)o1)Oc1ccc(Cl)cc1	-10%	-8%
23	COc1cc(/C=N/NC(=O)c2cc(-c3ccc4c(c3)OCO4)n[nH]2)ccc1O	-30%	?
24	CCCCN1C(=O)C(CC(=O)NCCCN(C)C)CC(C(=O)N(CC)CC)=C1C (stereo not given)	-3%	i
25	COc1ccc(-c2cc(N3CCCC3)n3ncnc3n2)cc1	-24%	?
26	CCn1c(=Nc2ccc(N3CCOCC3)cc2)ccc2ccccc21	6%	.
27	CC(=O)CCC(=O)N1CCC(n2nccc2NC(=O)c2ccccc2C)CC1	-2%	-8%
28	Cc1ccc(Sc2cnn(-c3ccccc3)c(=O)c2Cl)cc1	?	.
29	CS(=O)(=O)N1CCN(c2ccccc2NC(=O)c2cccs2)CC1	-14%	i
30	Cc1cc(C)n(/N=C/c2ccco2)c(=O)c1C#N	-2%	i

Pulled one by one from the list above, five records:
entry	SMILES	Vaccinia Venus	Vaccinia mCherry
18	COc1ccc(Cl)cc1NC(=S)NCCO	?	-28%
30	Cc1cc(C)n(/N=C/c2ccco2)c(=O)c1C#N	-2%	i
20	CCCCOc1ccc(C(=O)NCC(=O)NCC(c2ccc(F)cc2)N2CCOCC2)cc1 (stereo not given)	-24%	-28%
19	COc1ccccc1C(CNC(=O)c1cccc(S(=O)(=O)N2CCCc3ccccc32)c1)N(C)C (stereo not given)	-25%	-9%
16	Cc1nc(N)sc1N=Nc1c(C)n(C)n(-c2ccccc2)c1=O	8%	-12%

More records:
entry	SMILES	Vaccinia Venus	Vaccinia mCherry
31	CC(C)c1ccc(NC(=O)C2CCN(S(C)(=O)=O)CC2)cc1	-10%	i
32	CC12CN(C(=S)Nc3ccccc3)CC(C)(CN(C(=S)Nc3ccccc3)C1)C2=O	-5%	-24%
33	N#CC1(Nc2ccc(-c3ccc(NC4(C#N)CCCC4)cc3)cc2)CCCC1	1%	i
34	O=C(Nc1ccc(Cl)cn1)c1ccc([N+](=O)[O-])o1	-22%	-21%
35	COc1ccc(NC(=O)c2cccs2)c([N+](=O)[O-])c1	-21%	.
36	CCOC(=O)CSc1nnc(Cn2nnc3ccccc32)n1-c1ccc(F)cc1	-2%	i
37	COc1ccc(C(=O)N2CCN(C(C)=O)CC2)cc1S(=O)(=O)NCc1ccc(Cl)cc1	-10%	-12%
38	CCOC(=O)N1CCC(NC(=O)C2CCN(S(=O)(=O)N3CCCC3)CC2)CC1	-10%	-13%
39	Cc1ccc(OCC(=O)NCCO)c(Br)c1	-3%	-2%
40	Cn1c(=O)[nH]c(=O)c2c1nc(SCCC(=O)O)n2Cc1cccc(Br)c1	-8%	i
41	Cc1noc(C)c1C(=O)NCc1cccs1	-10%	-4%
42	Cn1c(SCc2cc(=O)[nH]c3ccccc23)nnc1-c1ccc(Br)cc1	-22%	i
43	Cc1ccc2nc(COC(=O)c3ccc(Cl)nc3)cc(=O)n2c1	-22%	-21%
44	CC1(C)C(=O)C=C[C@]2(C)[C@H]3CC[C@@]4(C)[C@H](c5ccoc5)OC(=O)[C@H]5O[C@]54[C@]3(C)[C@H](O)C[C@@H]12	-6%	7%
45	Cc1ccc(NC(=O)CCC(=O)NNS(=O)(=O)c2ccc(Cl)cc2)cc1C	-21%	-25%
46	Cc1ccc(S(=O)(=O)N(C)C)cc1NC(=O)Nc1ccccc1	-16%	i
47	Cc1ccc(S(=O)(=O)N2CCCC(C(=O)NCc3ccccc3F)C2)cc1 (stereo not given)	-11%	-4%
48	COC(=O)c1c(C)[nH]c(C(=O)OCC(=O)N(CC(C)C)c2c(N)n(Cc3ccccc3)c(=O)[nH]c2=O)c1C	-22%	-22%
49	CSCCC(NC(=O)c1ccco1)C(=O)Nc1cc(C)ccn1 (stereo not given)	2%	-15%
50	CC(=O)N1c2ccc(C)cc2C(c2ccccc2)CC1C (stereo not given)	-22%	?
51	COc1ccc(-c2csc(Cc3nnc4n3CCCCC4)n2)cc1	-9%	i
52	COC(=O)C(=C/C(C)=C/c1cccnc1)C(=O)OC	-22%	-22%
53	Cc1cc(C)c(S(=O)(=O)N2CCCC(C(=O)N3CCOCC3)C2)c(C)c1 (stereo not given)	-19%	-21%
54	CN1CCc2cc(O)c(O)cc2C(c2ccccc2)C1 (stereo not given)	-13%	i
55	CCN(CC)C(=O)CSc1nc(O)cc(=O)n1C	1%	-6%
56	Cc1ccc([N+](=O)[O-])cc1NC(=S)NC(=O)C(C)(C)C	-11%	0%
57	Cc1ccc(-c2c[n+](CC(=O)Nc3ccccc3C)c3n2CCC3)cc1	-14%	-13%
58	CCOC(=O)C1CCN(C(=O)CCc2c(C)nc3c(-c4ccc(F)cc4)c(C)nn3c2C)CC1	-13%	?
59	Cc1cccc(CSCCNC(=O)c2ccc(N(C)S(=O)(=O)c3ccccc3)cc2)c1	-17%	?
60	CS(=O)(=O)N1CCCC(C(=O)Nc2ccccc2Cl)C1 (stereo not given)	-8%	-13%

Taken from above:
compound 53 | Vaccinia mCherry: -21%
compound 46 | Vaccinia Venus: -16%
compound 54 | Vaccinia Venus: -13%
compound 50 | Vaccinia Venus: -22%
compound 60 | Vaccinia mCherry: -13%

(cont.)
entry	SMILES	Vaccinia Venus	Vaccinia mCherry
61	CCOc1ccccc1N(CC(=O)Nc1ccccc1C(=O)N1CCCC1)S(C)(=O)=O	5%	-13%
62	CCCCc1nc(SCC(=O)N2CCCCC2)c2c(=O)n(C)c(=O)n(C)c2n1	-20%	-10%
63	Nc1cc(-c2nc3ncccc3o2)ccc1Cl	-10%	-5%
64	O=C(NCCc1ccccn1)c1cnn(-c2ncc3c(n2)-c2ccccc2CC3)c1C1CC1	-22%	-28%
65	CN(C)C1(CNC(=O)c2cccc(S(=O)(=O)Nc3ccc(Br)cc3)c2)CCCCC1	-4%	-14%
66	O=[N+]([O-])c1ccc(Cl)c(CN2CCN(c3ncccn3)CC2)c1	-11%	0%
67	Cc1c(C(=O)N(C)CC(=O)Nc2cccc(F)c2)oc2c(Cl)cccc12	-14%	i
68	O=C(NCCc1cn2ccccc2n1)C1CCCCC1	10%	-11%
69	CCc1ccc2oc(=O)cc(CN(C)Cc3ccccc3)c2c1	-11%	.
70	Cc1cc(Cl)ccc1NC(=O)c1ccc2c(c1)OCO2	-15%	i
71	COc1cc(OC)c(C(=O)COc2ncnc3ccccc23)c(OC)c1	-7%	i
72	COc1ccc(S(=O)(=O)NCCSCc2cccc(C)c2)cc1Br	-6%	-10%
73	CCn1c(SCC(=O)NC2CC2)nc2ccccc21	-11%	-15%
74	O=C(Nc1ccc(Cl)cc1)OCc1cc(-c2ccccc2Cl)on1	-5%	i
75	Cc1ccc(C(=O)Cn2nc(C)c([N+](=O)[O-])c2C)c(C)c1	-10%	-11%
76	Cc1cc(=O)oc2c(C)c(OC(=O)c3ccco3)ccc12	-5%	-9%
77	O=c1oc(=S)oc2c1[C@H](c1ccc(Cl)cc1)O[C@H](C1CCCC1)C2	0%	11%
78	Cc1cc(C)nc(SCCn2c(N3CCCCC3)nc3c2c(=O)n(C)c(=O)n3C)n1	-4%	-15%
79	COc1ccc(CCNc2ccc(S(=O)(=O)N3CCN(C)CC3)cc2[N+](=O)[O-])cc1	-16%	-24%
80	Cc1ccc(OCCOCCN2CCCCC2)c([N+](=O)[O-])c1	-7%	-12%
81	CCOC(=O)c1cccc(S(=O)(=O)N2CCOCC2)c1	-1%	-2%
82	O=C(CN1C(=O)C2C3C=CC(C3)C2C1=O)Nc1cccc2c1CCCC2 (stereo not given)	-13%	.
83	CCCCn1c(N)c(N(CC(C)C)C(=O)CC2CCCC2)c(=O)[nH]c1=O	-12%	-20%
84	CCOC(=O)C1C(c2cccs2)NC(=O)NC1(O)C(F)(F)F (stereo not given)	0%	-8%
85	COc1ccc(-c2cnc3c(NC(C)=O)cc(-c4ccsc4)cn23)cc1OC	7%	14%
86	COc1ccc2c(c1)-c1nc(-n3ncc(C(=O)N(C)CC4CCCN(C)C4)c3C3CC3)ncc1CC2 (stereo not given)	-3%	-12%
87	Cc1cccn2c(=O)c(C(=O)NCCCN3CCCCC3C)c(O)nc12 (stereo not given)	-6%	-11%
88	O=C1NC(=O)N(c2ccccc2F)C(=O)/C1=C/c1cn(CC(=O)N2CCOCC2)c2ccccc12	-12%	i
89	CCCn1nc(NC(=O)c2ccco2)c2cc3ccc(C)cc3nc21	-15%	-28%
90	COc1cccc(NC(=O)CSCC(=O)Nc2ccccc2)c1	-18%	.
91	COc1ccc(NC(=O)c2cccc(-c3ccc(O)cc3)c2)cn1	-9%	?
92	CC1CC(=O)NC(=O)N1Cc1ccccc1 (stereo not given)	-11%	-3%

Some of the entries so far, with values under each structure.
Each structure is followed by: Vaccinia Venus | Vaccinia mCherry
87: Cc1cccn2c(=O)c(C(=O)NCCCN3CCCCC3C)c(O)nc12 (stereo not given)
    -6% | -11%
90: COc1cccc(NC(=O)CSCC(=O)Nc2ccccc2)c1
    -18% | .
85: COc1ccc(-c2cnc3c(NC(C)=O)cc(-c4ccsc4)cn23)cc1OC
    7% | 14%
77: O=c1oc(=S)oc2c1[C@H](c1ccc(Cl)cc1)O[C@H](C1CCCC1)C2
    0% | 11%
82: O=C(CN1C(=O)C2C3C=CC(C3)C2C1=O)Nc1cccc2c1CCCC2 (stereo not given)
    -13% | .
88: O=C1NC(=O)N(c2ccccc2F)C(=O)/C1=C/c1cn(CC(=O)N2CCOCC2)c2ccccc12
    -12% | i
